# 2A firefly = Primary qHTS Assay for Foot and Mouth Disease Virus Antivirals against NCGC Sytravon and CBC Compound Libraries: Firefly Luciferase Signal | HEK cells with a luciferase reporter of 2A StopGo recoding | Potency, µM (titrated, usually from 57.5 µM), for inactives: at the highest dose signal change, negative = less light | actives 0.23% (n = 120,000) | AID 1745856, 2022; active = well fitted falling curve with a large enough effect; inconclusive = small, poorly fitted or top-dose-only effect; inactive = no such curve, though single readings can be large or run the other way; further: nearly all actives have a fitted effect of over 60% in size; overnight with compound
# 2A Renilla = Primary qHTS Assay for Foot and Mouth Disease Virus Antivirals against NCGC Sytravon and CBC Compound Libraries: Renilla Luciferase Signal; HEK cells with a luciferase reporter of 2A StopGo recoding; Potency, µM (doses to about 57.5 µM), for inactives: at the top dose signal change, negative = less light; actives 0.32% (n = 120,000); AID 1745857, 2022; active means well fitted falling curve with a large enough effect; inconclusive means small, poorly fitted or top-dose-only effect; inactive means no such curve, though single readings can be large or run the other way; further: nearly all actives have a fitted effect of over 55% in size; overnight with compound
# Active calls of the source: *; ? = inconclusive; [ ] = remark or other dose. On the % scale 0 is the no-effect control and ±100 the full control effect; potency means the concentration at half of the fitted maximal effect. Some of the compounds tested; rates above refer to the full screens.
No.	molecule	2A firefly	2A Renilla
1	CCn1c(CN2CCC(C)CC2)nc2cc(NC(=O)c3ccc([N+](=O)[O-])cc3)ccc21	-10%	-5%
2	CCC(NC(=O)Cn1c(=O)c2c(ncn2C)n(C)c1=O)c1ccc(Cl)cc1 (centres undefined)	9%	-5%
3	Cc1ccc(Cl)cc1N1CCN(C(=O)c2ccc3c(c2)CCN3S(=O)(=O)c2ccccc2)CC1	-8%	0%
4	Cc1ccc(S(=O)(=O)N2CCCCC2)cc1NCC(=O)N1CCN(C(=O)c2cccs2)CC1	-6%	-3%
5	O=C1/C(=C/c2ccc(Cl)c(Cl)c2)C(c2ccccc2)Oc2ccccc21 (centres undefined)	-21%	-9%[1.06 µM]
6	CC(C)CC1=NN(C(=O)CSCc2ccccc2Cl)C(O)(C(F)(F)F)C1 (centres undefined)	-32%	22%
7	CCNc1c(NC(=O)c2ccccc2OC)c(=O)oc2ccccc12	48%[activator]	23%
8	CC(C)(C)OC(=O)N1CCC(c2nnc(SCc3cccc(Cl)c3)o2)CC1	-1%	-5%
9	O=C(Cc1cc(Cl)c2c(c1)OCCCO2)NC1CCN(CC(F)F)CC1	3%	-19%
10	CCCCSc1nc(-c2cccc(OC)c2)nc2c1Cc1c(CO)cnc(C)c1O2	3%	-7%
11	COc1ccc(OCc2nnc(SCC(=O)N3CCc4ccccc4C3)n2C)cc1	-2%	18%
12	CCN(CC)c1ccc(NC(=O)Cn2nc3c(cc2=O)CCCC3)c(C)c1	-2%	-22%
13	CCOC(=O)c1ccc(-n2c(CCC(=O)O)ccc2-c2ccccc2)cc1	47%[activator]	16%
14	Cc1nc2ccc(Cl)cc2cc1C(=O)N1CCN(CC(F)(F)F)CC1	-20%	-12%
15	CNc1c(NC(=O)c2ccccc2Br)c(=O)oc2ccccc12	13%	6%
16	COc1ccccc1C(=O)N1CCC(c2nc3ccccc3o2)CC1	9%	4%
17	CC(C)Cc1nn2c(=O)cc(CSCC(=O)Nc3cccc4ccccc34)nc2s1	-3%	-10%
18	COc1ccc(OCC(=O)Nc2ccc3oc(-c4ccc(OC)cc4)nc3c2)cc1	0%	7%
19	CCOC(=O)c1c(C)[nH]c(C)c1S(=O)(=O)N(C)CC(=O)N1CCN(c2cccc(Cl)c2)CC1	-15%	35%[activator]
20	N#Cc1ccc(/C=C(/CC(=O)O)c2nc3ccccc3o2)cc1	85%[activator]	5%
21	COc1ccc(C(=O)NC2CCCNC2=O)cc1S(=O)(=O)N(C)C (centres undefined)	-5%	-12%
22	Cc1cccc(N2CCN(CCNC(=O)Nc3ccc(Cl)cc3)CC2)c1C	-16%	-4%
23	O=C(CC1CC2CCC1C2)NCc1ccccn1 (centres undefined)	38%[activator]	-8%[1.06 µM]
24	c1ccc(-c2nc3ccccc3s2)cc1	141%[activator]	14%
25	CNC(=O)c1ccc(CN(C)C(=O)C2CCN(C(=O)/C=C/c3ccccc3)CC2)cc1	31%[activator]	4%
26	CNC(=O)NC(=O)C(C)Sc1ccccc1Cl (centres undefined)	6%	-8%
27	CCOc1ccc(C(=O)c2sc(Nc3c(C)cccc3C)nc2N)cc1	16%	15%
28	Cn1cc(S(=O)(=O)N2CCCCC2)cc1C(=O)NCc1ccc(Cl)cc1	-5%	-16%
29	C=C(C)Cn1c(SCc2ccc3ccccc3c2)nc2c1c(=O)[nH]c(=O)n2C	1%	-8%
30	COC(=O)c1ccc(OC(=O)c2cccs2)c(OC)c1	10%	12%[1.06 µM]
31	COc1ccc(C(=O)NC2(C(F)(F)F)NC(=O)N(c3ccccc3)C2=O)cc1OC (centres undefined)	19%	14%
32	O=C(Cc1ccccc1)NNC(=S)NCc1ccccc1	14%	0%
33	CSc1ccc(CNC(=O)c2ccc(NC(=O)c3nsc4ccccc34)cc2)cc1	-28%	-5%
34	COc1ccc(S(=O)(=O)Nc2cc3c(cc2NCc2ccccc2)n(C)c(=O)n3C)cc1	345%[activator]	636%[activator]
35	Cc1noc(CS(=O)(=O)Cc2ccccc2C)n1	-9%	-17%
36	CC(C)Sc1nc2c(c(=O)n(C)c(=O)n2C)n1Cc1cccc2ccccc12	-2%	-15%
37	CCOc1ccc(C(=O)Nc2cc3c(cc2N2CCCC2)n(C)c(=O)c(=O)n3C)cc1OCC	-14%	6%
38	COC(=O)CC1Oc2ccc(Cl)cc2-n2cc(-c3ccc(F)cc3)nc21 (centres undefined)	12%	-1%
39	CCOC(=O)c1cc(S(=O)(=O)Nc2ccccc2)[nH]n1	-7%	140%[activator]
40	CC1(C)CC(=O)C2=C(C1)OC(N)=C(C#N)C2c1ccncc1 (centres undefined)	6%	-2%[1.06 µM]

# Fetched one by one from above, 2 records:
No.	molecule	2A firefly	2A Renilla
39	CCOC(=O)c1cc(S(=O)(=O)Nc2ccccc2)[nH]n1	-7%	140%[activator]
40	CC1(C)CC(=O)C2=C(C1)OC(N)=C(C#N)C2c1ccncc1 (centres undefined)	6%	-2%[1.06 µM]

# (further entries)
No.	molecule	2A firefly	2A Renilla
41	C=Cn1cnc2ccccc21	14%	1%
42	Cn1c(=O)oc2cc(S(=O)(=O)NC(CC(=O)O)c3cccc(Br)c3)ccc21 (centres undefined)	-11%	-8%
43	O=C(CCCl)Nc1ccc2c(c1)CCC2	54%[activator]	-8%
44	N#CC1(C(=O)Nc2cnc3ccccc3c2)CCCC1	19%	3%
45	O=C(COc1ccccc1)Nc1cccc2cccnc12	38%[activator]	-2%
46	COc1ccc(-c2cc3ccc(OCC(=O)OC(C)(C)C)cc3oc2=O)cc1	-25%	?
47	CC(CCc1ccco1)NC(=O)CCc1nnc2ccc(N3CCN(C)CC3)nn12 (centres undefined)	0%	-15%
48	CCN(CC)C(=O)c1cc(-c2ccncc2)nc2ccccc12	18%	19%
49	CCCCN(C)C(=O)C(Cc1ccccc1)NS(=O)(=O)c1ccc2c(c1)c(=O)n(C)c(=O)n2C (centres undefined)	?	8%
50	CC1CCN(Cc2nc(N)c3ccccc3n2)CC1	8%	-6%

# Single records (already shown). Order of values: 2A firefly, 2A Renilla
# `CCN(CC)C(=O)c1cc(-c2ccncc2)nc2ccccc12` is listed as 18%, 19%
# `C=Cn1cnc2ccccc21` is listed as 14%, 1%
# `COc1ccc(-c2cc3ccc(OCC(=O)OC(C)(C)C)cc3oc2=O)cc1` is listed as -25%, ?
# `CCCCN(C)C(=O)C(Cc1ccccc1)NS(=O)(=O)c1ccc2c(c1)c(=O)n(C)c(=O)n2C` (centres undefined) is listed as ?, 8%
# `O=C(COc1ccccc1)Nc1cccc2cccnc12` is listed as 38%[activator], -2%

# Additional entries.
No.	molecule	2A firefly	2A Renilla
51	CCOC(=O)C1=C(C)OC(N)=C(C(=O)OC(C)(C)C)C12C(=O)Nc1ccccc12 (centres undefined)	4%	18%
52	CC1CCC(NC(=O)c2ccccc2Sc2ccccc2C#N)CC1 (centres undefined)	0%	0%
53	COc1ccc(-c2csc(NC3CC3)n2)cc1OC	6%	-5%
54	Cc1ccc2oc(C(=O)Nc3nnc(C(C)C)s3)cc(=O)c2c1	2%	-5%
55	O=C(CCc1nc(-c2cccs2)no1)Nc1ccccc1N1CCOCC1	13%	21%
56	Cc1cccc(CNC(=O)CCCN2C(=O)c3cccnc3Oc3ccccc32)c1	-9%	-12%
57	O=C(NCCC(c1ccccc1)c1ccccc1)c1cncc(Br)c1	-3%	14%
58	CN(CCO)c1cccc2c1S(=O)(=O)N(Cc1cn(Cc3ccc(F)cc3)nn1)Cc1ccccc1O2	4%	128%[activator]
59	O=C(O)C12CC3CC(CC(Cl)(C3)C1)C2	17%	7%
60	Cc1cccc(NC(=O)c2sc(-n3nc(C)c(CCC(C)C)c3C)nc2C)c1	2%	1%
61	Cc1ccc2nc(-c3ccccc3)cc(C(=O)NCC(=O)NC3CC3)c2c1	39%[activator]	41%[activator]
62	NS(=O)(=O)c1ccc(NC(=O)C(=O)Nc2ccc3nc4n(c(=O)c3c2)CCCCC4)cc1	7%	-14%
63	CCCCCCCCN1C(=O)[C@@H](CC(=O)NCC23CC4CC(CC(C4)C2)C3)C[C@@]2(C(=O)OC)C1=C[C@H](COCc1ccccc1)O[C@@H]2C	-19%	-9%
64	CCCNC(=O)c1cc(-c2ccncc2)nc2ccccc12	7%	5%
65	CCCNc1c(NC(=O)Nc2ccccc2C(F)(F)F)c(=O)oc2ccccc12	5%	10%
66	CCc1ccccc1NC(=O)[C@H](Cc1ccccc1)N1Cc2ccccc2C1=O	33%[activator]	50%[activator]
67	Cc1ccc2nc3c(cc(C(=O)NC4CCCC4)c(=N)n3C(C)C)c(=O)n2c1	-25%	-12%
68	COc1ccc(Br)cc1CNC(=O)c1cnc2sc(N3CCC(C)CC3)nn2c1=O	-6%	-5%
69	COc1ccc(NC(=O)N2CCC(NS(=O)(=O)c3ccccc3F)CC2)cc1	15%	6%
70	CCCCCn1c(SCCc2ccccc2)nc2c1c(=O)[nH]c(=O)n2C	-3%	-7%
71	CCc1noc(C)c1C(=O)Nc1sc2c(c1C(N)=O)CCC(CC)C2 (centres undefined)	0%	10%
72	CN(Cc1ccccc1)C(=O)c1ccc(-c2ccsc2)cc1	68%[activator]	9%
73	Cc1ccc(-c2nc3c4cnn(-c5cc(Cl)ccc5Cl)c4ncn3n2)cc1	31%[activator]	-9%
74	CCCn1nc(C(=O)N2CCN(c3ccccc3)CC2)c2ccccc2c1=O	8%	20%
75	Cc1nn(C)c(C)c1CN(C)C(=O)Cn1nc(C(F)(F)F)c(Cl)c1C	-1%	-14%
76	COC(=O)C1=C(c2ccccc2)c2ccccc2S(=O)(=O)N1CC(=O)Nc1ccc(F)cc1F	2%	37%[activator]
77	Cc1c(C)[n+](=O)c(-c2ccc(Br)cc2)c(C)n1[O-]	0%	1%[1.06 µM]
78	COc1ccc(CC(=O)Nc2sc3c(c2C(=O)Nc2ccccc2)CCCCC3)cc1	-15%	-8%
79	Cc1ncsc1C(=O)NCc1ccc(N2CCC(C)CC2)nc1	?	?
80	COCCNC(=O)C(=O)Nc1c2c(nn1-c1ccccc1)CS(=O)(=O)C2	3%	-3%
81	CCC(C)NC(=O)c1ccccc1NS(=O)(=O)c1c(F)cccc1F (centres undefined)	-9%	34%[activator]
82	CCCOC(=O)c1c(NC(=O)c2cc3ccccc3c(=O)o2)sc2c1CCC(C)C2 (centres undefined)	24%	29%
83	O=C(NCCn1nc(-c2ccc(F)cc2)ccc1=O)c1ccc(C(F)(F)F)cc1	-2%	-10%
84	Cc1ccc(Oc2nc(-c3cccnc3)nc3ccccc23)cc1	-1%	-14%
85	CCn1c(=O)cc(OCC(=O)Nc2ccc(C)c(F)c2)c2ccccc21	-11%	-4%
86	COc1cccc(NC(=O)c2cc3c(=O)n4ccccc4nc3n2C)c1	7%	-3%
87	CCOc1cc(C(=O)Nc2ccc3sc(NC(=O)C(C)C)nc3c2)cc(OCC)c1OCC	?	?
88	Cc1cc(N2CCCCC2)nc(NCc2ccccc2)n1	?	?
89	CCc1ccc(OCC(=O)NCC(c2ccc(Cl)cc2)N2CCOCC2)cc1 (centres undefined)	-4%	-12%
90	CCOc1ccccc1NC(=O)Cn1c(=O)n(-c2ccc(F)cc2)c(=O)c2sc3ccccc3c21	-12%	-8%
91	CC(C)Cc1nc2cccnc2n1C1CCN(S(=O)(=O)c2ccc3c(c2)CCCC3)CC1	-7%	6%
92	Cc1ccc(CNCC2CN(C)CCO2)o1 (centres undefined)	-5%	1%
93	O=C(O)c1cc2cccc(Cl)c2[nH]1	0%	1%
94	COc1ccc(NC(C)=O)cc1NC(=O)Cc1ccc(OC)c(OC)c1	6%	-5%
95	O=C(NCC(=O)N(Cc1ccco1)C1(C(=O)NC2CCCCC2)CCCCC1)c1ccccc1	-9%	75%[activator]
96	Cc1ccc(-c2nn3c(=O)cc(CNC(=O)COc4cccc(C(F)(F)F)c4)nc3s2)cc1	8%	-11%
97	Cc1ccn2c(=O)cc(COc3ccc(NC(=O)C(C)(C)C)cc3)nc2c1	-12%	26%
98	COc1ccc(C(=O)c2oc3ccc(NC(=O)C(C)C)cc3c2C)cc1	42%	9%
99	CCOC(=O)c1ccc(NC(=O)c2oc3c(c2C)-c2nn(Cc4ccccc4Cl)cc2CC3)cc1	-27%	?
100	O=C(NCC(c1ccco1)N1CCOCC1)c1cc(=O)c2cc(Cl)ccc2o1 (centres undefined)	13%	14%

# Continuation:
No.	molecule	2A firefly	2A Renilla
101	COc1ccc2nc(Nc3nc(C)c(CCC(C)C)c(=O)[nH]3)nc(C)c2c1	-1%	-12%
102	Cc1nc2ccc(C(=O)NC3CCC(C)CC3)cc2nc1C (centres undefined)	0%	-7%
103	CCN(Cc1ccccc1)Cc1c(O)ccc2c(=O)c(-c3ccc(Cl)cc3Cl)coc12	0%	23%
104	COc1ccccc1Nc1nc2nccc(-c3cccnc3)c2c(=O)[nH]1	77%[activator]	0%
105	COc1ccc(C(C)=O)cc1COC(=O)c1ccc(C#N)cc1	-2%	7%
106	Cc1ccc2nc(-c3cccnc3)cc(C(=O)NCCc3ccc(F)cc3)c2c1	6%	-3%
107	O=C(Nc1ccccc1Br)c1cnn2c(C(F)F)cc(C3CC3)nc12	2%	-10%
108	O=C(CCS(=O)(=O)c1ccc2c(c1)CCN2C(=O)C1CC1)Nc1ccc(F)c(F)c1	-6%	-3%
109	COc1ccc(Cc2nnc(SCc3nc4ccccc4c(=O)[nH]3)n2CC(C)C)cc1	-11%	-12%
110	O=C(CCCCCn1c(=O)[nH]c2ccccc2c1=O)N1CCN(c2cccc(C(F)(F)F)c2)CC1	0%	5%
111	CCCN(C(=O)c1cc2c(=O)oc3ccccc3c2s1)c1ccccc1C	-11%	1%
112	COc1ccccc1N(C)C(=O)Cc1noc2ccccc12	5%	6%

# Source: PubChem
